Screens: PubChem, National Center for Advancing Translational Sciences (NCATS)
2A StopGo: FMDV 2A StopGo reporter, luciferase signal; human cells with a luciferase reporter of 2A StopGo recoding; control for the full effect not named in the record; 1.2% of 410,000 active; Potency, µM (top dose mostly 57.9 µM), inactives show at the top dose signal change, negative = less light; active = well fitted falling curve with a large enough effect; inconclusive = small, poorly fitted or top-dose-only effect; inactive = no such curve, though single readings can be large or run the other way; tested in HEK293T cells; also: nearly all actives have a fitted effect of over 45% in size; luciferase light after 4 h
RE007 growth inh: less growth of the S. pombe RE007 Vpr strain; S. pombe RE007 Vpr strain, BacTiter-Glo ATP luminescence, 24 h; control for the full effect not named in the record; Potency, µM (top dose mostly 92.2 µM), inactives show at the top dose activity change, negative = less growth; 0.21% of 360,000 active; AID 651644; active = well fitted falling curve with a large enough effect; inconclusive = small, poorly fitted or top-dose-only effect; inactive = no such curve, though single readings can be large or run the other way;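 also: nearly all actives have a fitted effect of over 50% in size; the assay follows cell death caused by Vpr and the record does not say whether a fall means rescue or toxicity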
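Fission yeast RE007 carrying one integrated HIV-1 vpr copy, seeded at OD 0.01 in PMG+AL medium with 23 nL pinned compound. Grown 24 h at 30 degrees; viability read by BacTiter-Glo luminescence after 5 min.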
* = called active by the depositor; u = inconclusive; & = joins results of further samples; [ ] = dose if it differs, or a comment. % is scaled to controls: 0 for no effect and ±100 for the full control effect; potency is read from the fitted curve at half-maximal effect.

| structure | 2A StopGo | RE007 growth inh |
| --- | --- | --- |
| CC1(C(=O)NS(=O)(=O)C2CC2)CCCN(C(=O)c2ccccc2)C1 (configuration not stated) | -12% | 12% |
| Cc1cnc(C(=O)N(c2ccccc2)C(c2ccccc2)c2nc3ccccc3[nH]2)cn1 (configuration not stated) | 38%[activator] | -6% |
| Cc1cc(C)c(NC(=O)CN(C)C(=O)CCN2C(=O)C3CCCCC3C2=O)c(C)c1 (configuration not stated) | -8% | -9% |
| CCN(CC)C(=O)c1[nH]cnc1C(=O)Nc1ccccc1F | 1% | -32% |
| CCNC(=O)C1(C)CCN(Cc2csc(-c3ccccc3)n2)C1 (configuration not stated) | 6% | -4% |
| CC1(C(=O)NS(=O)(=O)c2ccccc2Cl)CCN1C(=O)Cc1cc(F)ccc1F (configuration not stated) | -8% | -8% |
| O=C1Nc2ccccc2N=C(c2ccc3c(c2)OCO3)C1N(C(=O)c1ccnc2ccccc12)c1ccccc1 (configuration not stated) | -24% | 1% |
| CCC(C)c1nc2ccsc2c(N2CCOC2=O)c1-c1ccccc1 (configuration not stated) | -28% | -3% |
| CC(C)c1ccc(NC(=O)C2Cc3c(-c4ccccc4Oc4ccccc4)ccnc3O2)cc1 (configuration not stated) | -18% | 0% |
| COc1ccc(S(=O)(=O)N2CCN(CC(=O)c3c(N)n(C)c(=O)n(C)c3=O)CC2)cc1OC | -7% | -17% |
| Cc1cc(N2CCOCC2)nc(N2CCOCC2)c1C#N | 1% | -10% |
| CC1(C(=O)NS(=O)(=O)c2ccc(F)cc2F)CCN1C(=O)Cc1ccccc1 (configuration not stated) | -15% | -13%[18.4 µM] |
| CCCC(=O)N1CCC1(C)C(=O)Nc1cc(OC)c(OC)c(OC)c1 (configuration not stated) | -13% | 2% |
| CCc1cccc(NC(=O)COC(=O)c2c(C)nn(-c3ccccc3)c2C)c1 | -29% | -3% |
| COc1ccc(S(=O)(=O)N2CCC(C(N)=O)CC2)cc1 | 12% | 3% |
| CC(=O)c1cccc(-c2ccnc3c2CC(C(=O)Nc2cccc(N(C)C)c2)O3)c1 (configuration not stated) | -15% | 1% |
| CC1=C(C(=O)N(C(C)C)C(C)C)CC(CC(=O)NC2CC2)C(=O)N1CCC1=CCCCC1 (configuration not stated) | -16% | 9% |
| O=C(Nc1ccccc1Cl)c1cc(C2CCCCN2C(=O)C2CCCCC2)on1 (configuration not stated) | -20% | -12% |
| NC(=O)c1cccc(-c2coc3c(C(=O)NCc4cccnc4)cccc23)c1 | -30% | 5% |
| COC(=O)/C=C1\OC(c2ccccc2)c2ccccc21 (configuration not stated) | -14% | -2% |
| CCN1C(=O)[C@H]2[C@@H](c3ccc(OC)cc3)N[C@]3(CCCN(Cc4ccco4)C3=O)[C@H]2C1=O | -22% | 7% |
| O=C(Nc1ccc2c(c1)OCO2)C1Cc2c(-c3cccnc3)ccnc2O1 (configuration not stated) | -13% | 4% |
| CCOC(=O)[C@]12CCC=C1N(CCC1=CCCCC1)C(=O)[C@H](CC(=O)NCCCOC)C2 | -17% | 2% |
| Cc1cccc(C)c1OCCOC(=O)c1ccc(S(=O)(=O)N2CCCC2)cc1 | -5% | -7% |
| O=C(C(=O)N1CCC(Cc2ccccc2)CC1)c1ccccc1 | 9%&3% | -11%&-10% |

Retrieved by structure from the list above, 3 records:
| structure | 2A StopGo | RE007 growth inh |
| --- | --- | --- |
| CC1(C(=O)NS(=O)(=O)C2CC2)CCCN(C(=O)c2ccccc2)C1 (configuration not stated) | -12% | 12% |
| O=C(C(=O)N1CCC(Cc2ccccc2)CC1)c1ccccc1 | 9%&3% | -11%&-10% |
| CCOC(=O)[C@]12CCC=C1N(CCC1=CCCCC1)C(=O)[C@H](CC(=O)NCCCOC)C2 | -17% | 2% |

More entries.
| structure | 2A StopGo | RE007 growth inh |
| --- | --- | --- |
| CCOc1ccc(N=Cc2ccc([N+](=O)[O-])cc2)c(O)c1 | 52%[activator] | u |
| CCn1c(C)nnc1SCC(=O)Nc1ccc(OC)cc1 | 0% | 13% |
| CC(C)(C)C(=O)c1c(N)[nH]c(C(=O)c2ccccc2)c1-c1ccc(F)cc1 | -4% | 4% |
| O=S1(=O)CC(N2CCCCC2)CN1Cc1cn(Cc2ccc(F)cc2)nn1 (configuration not stated) | -12% | 2% |
| CC1=C(C(=O)N(C)C)CC(CC(=O)NCc2cccc3ccccc23)C(=O)N1CCC1=CCCCC1 (configuration not stated) | -12% | 2% |
| CC(O)(c1ccc(F)c(F)c1)c1nc(-c2cccc(C(F)(F)F)c2)cs1 (configuration not stated) | -24% | u |
| Cc1cncc(NCc2cccc(Cl)c2)n1 | 9% | -9%[18.4 µM] |
| CC(C)C(=O)N1CCCC1(C)C(=O)NCc1ccccn1 (configuration not stated) | -15% | -19%[18.4 µM] |
| Cc1ccccc1-c1cccc([C@@H]2C[C@H]3[C@H](CON3C)CN2C(=O)CCc2ccccc2)c1 | -15% | 2% |
| CSC[C@H]1CN(Cc2ccccc2)C(=O)[C@@H]1CC(=O)Nc1ccc(Br)cc1 | 17% | -21% |
| O=C(Cc1ccc(NC(=O)C2CCN(C(=O)C3CC3)CC2)cc1)Nc1cccc(C(=O)N2CCCCC2)c1 | -2% | 0% |
| COC(=O)C[C@@H]1CC[C@H](NC(=O)c2ccc3c(c2)OCO3)[C@@H](CO)O1 | -17% | 12% |
| COc1ccc(Cc2c(-c3ccc(F)cc3)nc3ccc(Br)cn23)c(C)c1 | 35%[activator] | 1% |
| O=C(NC(=S)Nc1c(Cl)cc(Cl)cc1Cl)c1ccccc1 | -9% | -19% |
| O=C(Nc1ccccc1)c1cc(C2CCCCN2C(=O)c2ccc3c(c2)CCO3)on1 (configuration not stated) | -7% | -12%[18.4 µM] |
| COC(=O)C1(C(=O)OC)C[C@H](c2cccs2)N(Cc2ccccc2OC)[C@@H]1c1ccc(F)cc1 | -26% | -4% |
| O=C(Oc1cccc2ccccc12)c1ccccc1 | 27% | 15% |
| CCCNC(=O)c1cc(S(=O)(=O)N2CCC3(CC2)OCCO3)ccc1F | 0% | -6% |
| C/C=C/c1cnc2c(c1)C(=O)N([C@H](C)CO)C[C@H](C)[C@@H](CN(C)C(=O)CN1CCOCC1)O2 | 0% | -3% |
| CCOC(=O)Cn1c(COc2ccccc2OC)[n+](C)c2ccccc21 | -10% | -18% |
| O=C(Cc1cccs1)N1Cc2ccccc2-n2nncc2C1 | -22% | 12% |
| O=C1C(Sc2cccc(F)c2)=C[C@@]2(O)CC[C@@H](O)[C@]1(Sc1cccc(F)c1)[C@H]2O | 10% | -6% |
| COc1ccc(C(=O)Nc2ccccc2C(=O)NC2CC2)c(OC)c1OC | 0% | 0% |
| O=C(Nc1ccc(S(=O)(=O)N2CCCC2)cc1)Nc1ccc(F)cc1F | 24% | -5% |
| O=C(COC(=O)c1cccc(S(=O)(=O)N2CCCC2)c1)c1ccc(F)cc1 | 5% | 3% |
| C[C@H](CO)N1C[C@H](C)[C@@H](CN(C)C(=O)CCC(F)(F)F)OCc2cnnn2CCCC1=O | -2% | 14% |
| COc1cccc(-c2cnc(C(O)c3ccc(F)cc3C)[nH]2)c1 (configuration not stated) | 14% | -2% |
| N#CCSc1ccccc1NC(=O)CN1C(=O)NC(CCc2ccccc2)C1=O (configuration not stated) | -16% | -7% |
| Cc1ccc(S(=O)(=O)N(C)C[C@H]2OCc3cnnn3CCCC(=O)N([C@H](C)CO)C[C@H]2C)cc1 | 0% | -5% |
| Cc1[nH]c2ccccc2c1C(=O)c1cc(Cc2ccccc2)sc1N | u | 4% |
| Cc1ccc([C@H]2C[C@@H](O)[C@H](n3cc(C4CC4)nn3)CN2C(=O)C2CCCCC2)cc1 | -12% | 12% |
| O=C1c2ccccc2C(=O)N1CCc1c(-c2[nH]c3ccccc3c2CCN2C(=O)c3ccccc3C2=O)[nH]c2ccccc12 | 6% | -10% |
| Cc1ccc(S(=O)(=O)N2C[C@H]3[C@H]4C(=O)N(C)C(=O)[C@H]4CC(=O)[C@H]3[C@@H]2c2ccccc2Cl)cc1 | 2% | 9% |
| O=C(NCc1ccccc1F)c1ccc(S(=O)(=O)N2CCCC2)cc1 | -9% | 5% |
| COCCNC(=O)C1(C)CCCN(C(=O)c2ccc(C)c(F)c2)C1 (configuration not stated) | -12% | 4% |
| Cc1cc(C)n2c(NC3CCCC3)c(-c3cc4ccccc4o3)nc2n1 | 12% | -28% |
| CCCCC1CC2=C(C(=O)OC(C)(C)O2)C(c2ccc3ccccc3c2)O1 (configuration not stated) | -7% | -15% |
| COC(=O)C(C(=O)OC)c1cc2c(cc1CNS(=O)(=O)c1ccc(C)cc1)OCO2 | 10% | 0% |
| CN1CCN(c2ccc(CNC(=O)c3ccc(-c4ccc(F)c(F)c4)c4ccoc34)cc2)CC1 | -15% | u |
| N#Cc1ccc(C(=O)N2CCCC(c3cc(C(=O)NCc4cccnc4)no3)C2)cc1 (configuration not stated) | -24% | -5% |
| Cc1cn(CC(=O)N(C)Cc2ccco2)c(=O)[nH]c1=O | -13% | 0% |
| CC(=NCc1ccccc1)c1ccccc1O | -5% | 1% |
| COc1cccc(C(C)(O)c2nc(-c3ccoc3)cs2)c1 (configuration not stated) | 0% | 11% |
| CC(C)(C)c1ccc(S(=O)(=O)NC(=O)C2(C)CCN2C(=O)C2CCCCC2)cc1 (configuration not stated) | -10% | 3% |
| COc1cccc(-c2cc(NC=O)c3ncc(-c4ccc(C(C)=O)cc4)n3c2)c1 | -17% | 12%[18.4 µM] |
| CC(C)(C)c1ccc(-n2ncc3c2CCCC3NC(=O)c2ccco2)cc1 (configuration not stated) | u | -22% |
| C#CCN(C[C@@H]1[C@@H](OC(=O)NCC2CCCCC2)[C@@H](OC(=O)NCC2CCCCC2)Cn2c(=O)n(CCCCCC)c(=O)n21)S(=O)(=O)c1ccc(C)cc1 | -17% | -1% |
| COCCNc1nc(-c2ccc(Cl)cc2C)c2sccc2n1 | -14% | -28% |
| COC(=O)c1ccc2nc(-c3ccc(OC)c(OC)c3)c(Cc3cccc(F)c3)n2c1 | -17% | -12% |
| CC1(C)CN(CCc2ccccc2)C(=O)[C@H]1CC(=O)Nc1ccccc1 | -4% | -1% |

The list goes on.
| structure | 2A StopGo | RE007 growth inh |
| --- | --- | --- |
| CCCCC[C@H](C)N1C[C@@H](COCc2ccccc2)Oc2cc(N3CC[C@H](O)C3)ccc2S1(=O)=O | -12% | -1% |
| CCc1c(-c2cccc(OC)c2)ncn1Cc1cccc(-c2ccccc2)c1 | 32µM* | -23% |
| COc1ccccc1N(C)S(=O)(=O)c1ccc(Cl)c(C(=O)Nc2ccccc2N2CCOCC2)c1 | -29% | 8% |
| N#Cc1ccc(-c2nc3ccc(Br)cn3c2Cc2ccccc2C(F)(F)F)cc1 | 2% | 10% |
| COc1cccc(C(NC(=O)C2CCN(CCCOc3ccccc3)CC2)c2ccccn2)c1 (configuration not stated) | -1% | -14% |
| CCOC(=O)[C@]12Cc3c(cc(OC)c(OC)c3OC)[C@H]1N(Cc1ccccc1)C(=O)c1cc(OC)ccc12 | 18µM* | 16% |
| CCOC(=O)C1(C)C(=O)CC2c3nc4ccccc4cc3CN2C1=O (configuration not stated) | 4% | -28% |
| CCOC(=O)C1=CCN(S(=O)(=O)c2ccccc2[N+](=O)[O-])C1c1ccc(C)cc1 (configuration not stated) | -24% | 3% |
| CC(=O)Cn1cnc2c(cnn2-c2ccc(F)cc2)c1=O | 61%[activator] | 7% |
| CCc1nc2ccc(C(=O)Nc3cccc(OCC(=O)N(C)C)c3)cn2c1N(C)Cc1ccc(OC)cc1 | u | 0% |
| Cc1cccc(C)c1Cn1c(C)c(C(=O)NCc2cccc(Cl)c2)sc1=O | -5% | 20%[18.4 µM] |
| CCCS(=O)(=O)NC(=O)C1(C)CCN(C(=O)COCc2ccccc2)C1 (configuration not stated) | -2% | 9% |
| OCCOC1CCCc2oc(-c3ccccc3)c(C#CC3(O)CCCCC3)c21 (configuration not stated) | -14% | -1% |
| C[C@@H]1CN([C@H](C)CO)C(=O)CCCn2nncc2CO[C@@H]1CN(C)C(=O)Nc1ccc2c(c1)OCO2 | -20% | -3% |
| Nc1cc(=O)[nH]c(SCc2ccccc2)n1 | 13% | -12% |
| C[C@H]1CN([C@@H](C)CO)C(=O)CCCn2nncc2CO[C@H]1CN(C)S(=O)(=O)c1cccc(C#N)c1 | -23% | -12% |
| C[C@H](CO)N1C[C@H](C)[C@@H](CN(C)C(=O)Oc2ccccc2)OCc2cn(nn2)CCCC1=O | -8% | -8% |
| CCCCCCCCN1C(=O)[C@H](CC(=O)NCCCOC)C[C@@]2(C(=O)OCC)CCCC=C12 | -17% | 57% |
| O=C(NNC(=O)c1cccc(S(=O)(=O)Nc2ccccc2F)c1)c1ccncc1 | -14% | -6% |
| CC(C)c1ccc(C(=O)N2CCCC(c3cc(C(=O)NCc4ccccc4)no3)C2)cc1 (configuration not stated) | u | -1%[18.4 µM] |
| O=C1NC[C@H](Cc2ccc(O)cc2)N(C[C@@H]2CCCN2C[C@H](Cc2ccccc2)N2C[C@H](Cc3ccc(O)cc3)N(CC3CCCCC3)C(=O)C2=O)C1=O | -3% | 4% |
| CC(=O)C[C@@H]1OC[C@H](CO)N1S(=O)(=O)c1ccc(C)cc1 | -11% | 7% |
| COc1cccc(NC(=O)CN(C)C(=O)c2cc(Cl)nc3ccccc23)c1 | 5% | -10% |
| CN(Cc1cnn(-c2ccccc2)c1)C(=O)c1cccc(S(=O)(=O)Nc2ccccc2F)c1 | 38%[activator] | -1% |
| O=C(CN1C(=O)NC2(CCc3ccccc32)C1=O)Nc1ccc(Cl)cc1F (configuration not stated) | -6% | 17% |

This is a subset; the hit share may differ from the screen's.
